Cruzain noTriton: cruzain (T. cruzi) inhibition without detergent. purified cruzain, Z-FR-AMC fluorescence, no detergent. Potency, µM, inactives show max response, negative = inhibition, hits mostly inhibitors. actives 2.3% (n = 200,000). AID 1476;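 also: plate controls were enzyme without inhibitor for no effect and buffer without enzyme for full effect; nearly all actives have a fitted effect of over 40% in size; top concentration of the series not given in the record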
Target sequence (P25779 123-467 limits assumed): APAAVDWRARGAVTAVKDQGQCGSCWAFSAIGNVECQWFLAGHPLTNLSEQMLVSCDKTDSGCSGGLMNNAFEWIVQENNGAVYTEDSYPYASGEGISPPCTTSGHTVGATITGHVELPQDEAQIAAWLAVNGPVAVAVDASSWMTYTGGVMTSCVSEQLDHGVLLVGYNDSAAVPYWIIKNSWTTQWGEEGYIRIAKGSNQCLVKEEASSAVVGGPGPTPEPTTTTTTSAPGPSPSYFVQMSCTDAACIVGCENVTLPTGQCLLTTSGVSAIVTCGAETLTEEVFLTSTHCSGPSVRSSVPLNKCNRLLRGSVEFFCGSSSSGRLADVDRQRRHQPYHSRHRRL
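Detergent-free condition (0.00005% Triton X-100) in acetate buffer pH 5.5 with DTT. 1.5 nM enzyme and compound were pre-mixed 15 min, then 2 uM Z-FR-AMC substrate added; reaction progress from fluorescence change between first and third reads (60 s).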
NS1 inh: inhibitors of influenza NS1 protein function; actives 0.4% (n = 270,000); S. cerevisiae slowed by influenza A NS1, growth recovery by OD600; Potency, µM (doses to about 46.1 µM), for inactives: top-dose activity, positive = more growth; active means well fitted rising curve with a large enough effect; inconclusive means small, poorly fitted or top-dose-only effect; inactive means no such curve, though single readings can be large or run the other way; also: nearly all actives have a fitted effect of over 50% in size
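S. cerevisiae expressing influenza A NS1, grown in glucose, washed, then diluted 1:100 into pH 6.0 -URA galactose medium with 23 nl compound. Growth recovery read as OD600; NS1-free strain serves as control.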
RE007 growth inh: less growth of the S. pombe RE007 Vpr strain. actives 0.21% (n = 360,000). S. pombe RE007 Vpr strain, BacTiter-Glo ATP luminescence, 24 h; control for the full effect not named in the record. AID 651644. Potency, µM (highest dose often 92.2 µM), for the others: top-dose activity change, negative = less growth; active = well fitted falling curve with a large enough effect; inconclusive = small, poorly fitted or top-dose-only effect; inactive = no such curve, though single readings can be large or run the other way;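 also: % is scaled to controls: 0 for no effect and ±100 for the full control effect; nearly all actives have a fitted effect of over 50% in size; the assay follows cell death caused by Vpr and the record does not say whether a fall means rescue or toxicity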
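Fission yeast strain RE007, carrying one chromosomally integrated HIV-1 vpr copy, was seeded at OD 0.01 in PMG+AL medium with 23 nL pinned compound. After 24 h at 30 °C and 99% humidity, viability was read by BacTiter-Glo luminescence.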
Cruzain Triton: blocks cruzain activity in presence of Triton detergent; P25779; purified cruzain, Z-FR-AMC fluorescence, 0.01% Triton; Potency, µM, for inactives: max response, negative = inhibition, hits mostly inhibitors; actives 0.43% (n = 200,000); AID 1478;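 also: plate controls were neutral wells for no effect and buffer without enzyme for full effect; nearly all actives have a fitted effect of over 40% in size; top concentration of the series not given in the record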
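Compounds were screened in titration against cruzain (1.5 nM) with 0.01% Triton X-100 to counter colloidal aggregation. Activity was the AMC fluorescence increase over 60 s after adding 2 uM Z-FR-AMC at pH 5.5.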
SARS PLpro yeast: SARS-CoV PLP inhibition in yeast. S. cerevisiae expressing SARS-CoV PLpro, growth rescue; control for the full effect not named in the record. Potency, µM (series often up to 32.9 µM), inactives show top-dose activity, positive = growth rescue. actives 0.19% (n = 330,000); active means well fitted rising curve with a large enough effect; inconclusive means small, poorly fitted or top-dose-only effect; inactive means no such curve, though single readings can be large or run the other way; also: 0% is about no effect; nearly all actives have a fitted effect of over 55% in size; growth read by luminescence after 48 h
Marburg entry inh: Marburg virus entry inhibition; Marburg virus pseudotyped entry inhibition, cell reporter; control for the full effect not named in the record; about a third of the inactives were read at about 46 µM; actives 1.8% (n = 300,000); Potency, µM (doses to about 37.8 µM), for the others: at the top dose activity change, negative = inhibition, usual class: inhibitors; active = well fitted inhibition curve with a large enough effect; inconclusive = small, poorly fitted or top-dose-only effect, or effect the other way; inactive = flat fitted curve, though single readings scatter; tested in HEK293 cells; about a fifth of its hits are not listed in these tables; also: % is scaled to controls: 0 for no effect and ±100 for the full control effect; luciferase read-out
LASV entry inh: inhibitors of Lassa virus binding or cell entry | Potency, µM (titrated, usually from 37.9 µM), for the others: at the top dose activity change, negative = inhibition, actives largely listed as inhibitors | Lassa virus pseudotype entry inhibition, cell reporter; control for the full effect not named in the record | actives 1.2% (n = 300,000); active means well fitted inhibition curve with a large enough effect; inconclusive means small, poorly fitted or top-dose-only effect, or effect the other way; inactive means flat fitted curve, though single readings scatter; tested in HEK293 cells; also: % is scaled to controls: 0 for no effect and ±100 for the full control effect; nearly all actives have a fitted effect of over 50% in size; luciferase read-out
2A StopGo: FMDV 2A StopGo reporter, luciferase signal | human cells with a luciferase reporter of 2A StopGo recoding; control for the full effect not named in the record | Potency, µM (highest dose often 57.9 µM), for the others: at the highest dose signal change, negative = less light | actives 1.2% (n = 410,000) | AID 1159524; active = well fitted falling curve with a large enough effect; inconclusive = small, poorly fitted or top-dose-only effect; inactive = no such curve, though single readings can be large or run the other way; tested in HEK293T cells; also: % is scaled to controls: 0 for no effect and ±100 for the full control effect; nearly all actives have a fitted effect of over 45% in size; luciferase light after 4 h
* hit, by the source's call; ? = inconclusive; nt = no result given; & = joins results of further samples; [ ] = dose if it differs, or a comment. Unless noted, calls follow the shape of the dose curve; as a rule, active = well fitted curve in the direction sought with a large enough effect; inconclusive = small, poorly fitted or top-dose-only effect, or another doubt; inactive = no such curve, though single readings can be large; an effect the other way counts as inactive or inconclusive. Potency is read from the fitted curve at half-maximal effect.

SMILES | Cruzain noTriton | NS1 inh | RE007 growth inh | Cruzain Triton | SARS PLpro yeast | Marburg entry inh | LASV entry inh | 2A StopGo
CCCCN1CNC(=S)N(c2ccc(C(=O)OCC)cc2)C1 | -1% | 4% | 16% | -2.0% | 8% | -1% | 27% | 16%
CCN1C(=O)C(=Cc2ccc(C)s2)C(=O)N(CC)C1=S | 10% | 23% | -2% | -4.2% | 4% | ? | ? | 40µM*
Cn1c(N)c(C(=O)COC(=O)COc2ccccc2C#N)c(=O)n(C)c1=O | nt | -1% | 1% | nt | 0% | 5%[46.1 µM] | 16%[46.1 µM] | 10%
O=C(Cn1cnc([N+](=O)[O-])c1)Nc1cc(Oc2ccc(Cl)cc2Cl)cc([N+](=O)[O-])c1 | -18% | ? | 28% | -6.2% | 24% | ? | ? | -10%
N#Cc1cnn2c(N)c(-c3ccc(Cl)cc3)cnc12 | nt | nt | 19% | nt | -5% | -9%[46.1 µM] | ? | 20%
Cc1nn(CCCC(=O)Nc2cc(C(F)(F)F)ccc2Cl)c(=O)c2c1sc1ccccc12 | 5% | nt | nt | -2.6% | nt | 2%[46.1 µM] | 2%[46.1 µM] | -22%
CN(C(=O)COC(=O)CNC(=O)c1sc2ccccc2c1Cl)c1ccccc1 | 7.9µM* | -28% | -5% | 8.9µM* | 11% | 0% | 0% | 1%
CSc1ccc(C#N)cc1NC(=O)c1ccccc1 | nt | nt | -15% | nt | -1% | 18%[46.1 µM] | -21% | -3%
CCCCc1cc(=O)oc2cc(C)cc(OC(C)C(=O)NCc3ccccn3)c12 (stereo not given) | nt | 12% | 8% | nt | -1% | nt | nt | 10%
Cc1ccc(S(=O)(=O)N2CCN(C(=O)CCCOc3ccc(Cl)cc3C)CC2)cc1 | nt | nt | 4% | nt | 4% | ? | ? | -17%
Cc1cccc(NC(=O)CNC(=O)CN2CCN(C)CC2)c1C | nt | nt | -2% | nt | 1% | 12% | 3% | -14%
Cc1ccc(C)c(N2CCN(S(=O)(=O)c3ccc4c(c3)NC(=O)CC(=O)N4)CC2)c1 | nt | 3% | 10% | nt | 6% | nt | nt | -26%
Cn1c(N)c(Sc2ccc([N+](=O)[O-])cc2)c(=O)n(C)c1=O | nt | 9% | -8% | nt | 2% | 17%[46.1 µM] | nt | -2%
O=C(NCc1ccccc1)c1ccc(N2CCC3(CC2)CC(c2ccccc2)=NO3)c([N+](=O)[O-])c1 | nt | 20% | -6% | nt | -3% | nt | nt | -17%
Cn1c(=O)c2c(nc(CN3CCC(C(N)=O)CC3)n2Cc2c(F)cccc2Cl)n(C)c1=O | 6% | -2% | -10% | -4.0% | -6% | ? | -13% | 5%
CC1=NNC(=O)/C1=C\c1cn(-c2ccccc2)nc1-c1ccc(Cl)cc1 | ? | 10% | -5% | -1.8% | -5% | ? | ? | 10µM*
O=C1NC(=NCc2ccccc2)S/C1=C\c1ccccc1 | -12% | 5% | -22% | -5.6% | 18% | 24% | -10% | 6%
CCCCNC(=O)C1CCC(Cn2c(=O)c3sccc3n(CC(=O)Nc3ccccc3)c2=O)CC1 (stereo not given) | -9% | nt | nt | -0.6% | nt | nt | 25%[46.1 µM] | -8%
Cc1cc(OCCn2c(CCNC(=O)C3CCCCC3)nc3ccccc32)ccc1Cl | -15% | nt | nt | 2.5µM* | nt | 15%[46.1 µM] | 1%[46.1 µM] | -19%
CCCCc1ccc(S(=O)(=O)N2CCC3(CC2)OCCO3)cc1 | nt | -19% | -8% | nt | -8% | ? | -10% | -10%
COc1cc(NC(=O)c2cc([N+](=O)[O-])ccc2NC(=O)CNCc2ccccn2)cc(OC)c1 | nt | -4% | 1% | nt | 0% | -18%[46.1 µM] | 11µM* | ?
Cc1cc(Br)cc(C)c1OCCCCN(C)C | -5% | 6% | 5% | 1.1% | 5% | ? | ? | 2%
COc1ccc(NC(=O)c2c(C)oc3ccc(O)c(CN4CCC(C)CC4)c23)cc1Cl | -18% | nt | nt | -4.7% | nt | ? | ? | -21%
COc1ccc(CCNS(=O)(=O)c2ccc(N3CCCC3=O)cc2)cc1 | nt | nt | -5% | nt | nt | ? | ? | -15%
COc1ccc(-c2nc3n(n2)C(c2cccnc2)C(C(N)=O)=C(C)N3)cc1 (stereo not given) | 3% | 2% | -4% | 3.0% | 4% | -22% | 1% | -11%
SMILES | Cruzain noTriton | NS1 inh | RE007 growth inh | Cruzain Triton | SARS PLpro yeast | Marburg entry inh | LASV entry inh | 2A StopGo
COC(=O)c1c(C)nn(-c2ccc(F)c(Cl)c2)c1-c1cc(C)on1 | nt | -6% | 2% | nt | 0% | 4.5µM* | ? | ?
CCC1CN(C(=O)N2CCC(C(=O)NCCc3ccc(Cl)cc3)CC2)c2ccccc2O1 (stereo not given) | 5% | nt | nt | -2.1% | nt | nt | 8%[46.1 µM] | 0%
O=C(NCc1cccnc1)c1cc(S(=O)(=O)N2CCCC2)c(Cl)cc1Cl | nt | -1% | 10% | nt | -2% | 0%[46.1 µM] | nt | 2%
O=C(N/N=C/c1ccccc1Br)c1ccc(CSc2cccc3cccnc23)cc1 | 10µM* | 10% | -11%[3.69 µM] | 0.7% | -4% | ? | 1% | -9%
COc1cccc(NC(=O)CSc2cc(C)c3ccccc3n2)c1 | -11% | nt | nt | -6.2% | nt | ? | ? | ?
Cc1cc(C)n(-c2ccc(C(=O)Nc3cc(S(=O)(=O)N(C)C)ccc3Cl)cc2)n1 | 7% | 3% | 12% | -1.0% | 8% | ? | ? | 28µM*
C[C@H](NC(=O)NCCc1ccccc1)C(=O)O | -8% | 7% | 4% | 2.1% | 0% | 1% | -2% | 14%
Nc1cc(-c2ccco2)no1 | -7% | 0% | -14% | -1.5% | 0% | 7% | 29% | 10%
CC(=O)Nc1ccc(S(=O)(=O)NC(CC(=O)NCCC2=CCCCC2)C(C)C)cc1 (stereo not given) | -1% | 23% | 3% | 5.7% | 4% | ? | ? | -16%
Cn1c(N2CCOCC2)cc(=O)n(C)c1=O | nt | 3% | 14% | nt | -1% | 5%[46.1 µM] | 36%[46.1 µM] | 2%
COc1ccc(CNCc2c(F)cccc2F)cc1OC | nt | -4% | -14% | nt | -1% | 0% | 3% | -6%
O=C(Nc1cc(Cl)ccc1Cl)c1ccc2c(c1)N(Cc1cccc(Cl)c1)C(=O)c1ccccc1S2=O (stereo not given) | ? | nt | nt | -0.8% | nt | nt | 19%[46.1 µM] | -8%
CC(C)(C)c1ccc(NC(=O)CON=C(N)c2ccccc2)cc1 | nt | nt | 1% | nt | -1% | ? | -11% | -5%
O=C(CNc1cccc2ccccc12)c1ccc([N+](=O)[O-])cc1 | ? | 18% | -5% | -1.6% | 9% | ? | 18% | -29%
CCOC(=O)c1ccccc1NC(=O)COC(=O)CCC(=O)c1ccccc1 | nt | -40% | 3% | nt | -8% | 3% | 11% | -1%
O=C1NC2(CCCCCC2)C(=O)N1CCS(=O)(=O)Oc1ccccc1 | nt | nt | 46% | nt | -1% | -3%[46.1 µM] | ? | -7%
COc1cc(NC(=O)CN2CCN(c3ccccc3F)CC2)c(C)cc1[N+](=O)[O-] | 25µM* | 13% | -2% | 2.1% | 0% | -15% | 7% | -9%
Cn1cc(C2NC(=O)c3ccccc3N2)c2ccccc21 (stereo not given) | nt | nt | -15% | nt | nt | -32% | -10% | 21%
COC(=O)c1ccc(C(=O)OC)c(NC(=S)N2CCN(C(=O)C3CCCO3)CC2)c1 (stereo not given) | nt | 1% | 12% | nt | 0% | 25%[46.1 µM] | 9% | 3%
COc1ccc(CCNC(C)C(=O)Nc2ccc(S(N)(=O)=O)cc2)cc1 (stereo not given) | nt | -3% | -4% | nt | 1% | nt | nt | -6%
CCC(=O)c1ccc(OCC(=O)Nc2ccc(S(=O)(=O)Nc3cc(C)nc(C)n3)cc2)cc1 | nt | nt | 2% | nt | 8% | nt | -9% | 83%[activator]
O=S1(=O)CC2N=C(N(Cc3ccc(F)cc3Cl)c3ccccc3F)SC2C1 (stereo not given) | -6% | -27% | 3% | -15% | 11% | -10% | -2% | -27%
CN(C)c1nnnn1-c1ccc(OC(F)(F)F)cc1 | nt | nt | 3% | nt | -1% | 14%[46.1 µM] | -4% | -14%
CCOc1ccc(OCC(=O)N2CCOCC2)cc1 | 3% | 0% | 2% | 5.5% | 3% | 9%[46.1 µM] | 0% | 7%
O=C(Nc1ccccc1)Nc1ccccc1 | -11%&4% | nt | -21% | 1.3%&-3.7% | nt | nt | nt | 63%&41%[activator]
SMILES | Cruzain noTriton | NS1 inh | RE007 growth inh | Cruzain Triton | SARS PLpro yeast | Marburg entry inh | LASV entry inh | 2A StopGo
Cc1ccc(/C=N/NC(=O)NC2CCCCC2)o1 | nt | nt | 11% | nt | -1% | 12%[46.1 µM] | ? | -8%
CCS(=O)(=O)c1ccc2oc(Nc3ccc(OC)c(OC)c3)nc2c1 | nt | -2% | -8% | nt | 0% | -2%[46.1 µM] | -10% | 52%[activator]
Cc1ccnc(SCCn2c(N3CC(C)CC(C)C3)nc3c2c(=O)n(C)c(=O)n3C)n1 (stereo not given) | 12% | -17% | 16% | 2.0% | 8% | 3% | -29% | 6%
COc1ccc(Cc2nnc(NC(=O)c3c(-c4ccccc4)noc3C)s2)cc1 | -6% | 28% | 3% | -6.6% | -7% | -1% | ? | -20%
CCCCC(c1nnnn1Cc1ccco1)N1CCN(C(=O)c2ccco2)CC1 (stereo not given) | 6% | -3% | -20% | 3.3% | 4% | -3% | -15% | -1%
COc1ccc(NC(=O)CSc2nnc(C3CC3)n2C)cc1 | nt | -1% | 1% | nt | 0% | 1%[46.1 µM] | 5% | -5%
N#C/C(=C\c1ccncc1)c1ccc(NC(N)=O)cc1 | nt | 4% | 0% | nt | 1% | nt | nt | 2%
CNc1ccc(S(=O)(=O)NCC(=O)NCCCc2ccccc2)cc1[N+](=O)[O-] | nt | -13% | 0% | nt | -1% | nt | nt | 29%
CCC(CC)c1nc(NCCC(=O)O)c2ccccc2n1 | 5% | -7% | 10% | 7.1% | -2% | ? | 2% | nt
CNc1c(NC(=O)COc2ccc(Cl)cc2)c(=O)oc2ccccc12 | nt | -21% | 8% | nt | -4% | nt | nt | -14%
Cc1ccc(NCc2nnc(SCC(=O)c3ccccc3)o2)c(C)c1 | -2% | -17% | ? | -4.8% | -5% | -19% | -14% | -18%
COc1ccc(CCN2C(=NC(=O)CCC(=O)O)SC3CS(=O)(=O)CC32)cc1OC (stereo not given) | -2% | 1% | -1% | 0.8% | 6% | 14%&14% | 11% | 12%

Screening results (PubChem)
